Screening results from PubChem.
StopGo FLuc – Primary qHTS Assay for Foot and Mouth Disease Virus Antivirals against NCGC Sytravon and CBC Compound Libraries: Firefly Luciferase Signal; HEK cells with a luciferase reporter of 2A StopGo recoding; Potency, µM (top dose mostly 57.5 µM), for the others: top-dose signal change, negative = less light; actives 0.23% (n = 120,000); AID 1745856, 2022; active = well fitted falling curve with a large enough effect; inconclusive = small, poorly fitted or top-dose-only effect; inactive = no such curve, though single readings can be large or run the other way; note: nearly all actives have a fitted effect of over 60% in size; overnight with compound
2A Renilla – Primary qHTS Assay for Foot and Mouth Disease Virus Antivirals against NCGC Sytravon and CBC Compound Libraries: Renilla Luciferase Signal; HEK cells with a luciferase reporter of 2A StopGo recoding; Potency, µM (titrated, usually from 57.5 µM), for the others: at the top dose signal change, negative = less light; actives 0.32% (n = 120,000); AID 1745857, 2022; active means well fitted falling curve with a large enough effect; inconclusive means small, poorly fitted or top-dose-only effect; inactive means no such curve, though single readings can be large or run the other way; note: nearly all actives have a fitted effect of over 55% in size; overnight with compound
Active calls of the source: *; ? = inconclusive; [ ] = remark or other dose. % is set by controls: 0 for no effect and ±100 for the full control effect; potency is the fitted concentration of half-maximal effect.

SMILES	StopGo FLuc	2A Renilla
CC1CCCN(C(=O)c2cc(-c3ccco3)nc3ccccc23)C1 (stereo not given)	-1%	25%
CCOc1cc(CNCc2ccco2)ccc1OC	0%	0%
CCC(=O)N1CCc2cc(CNC(=O)Cc3ccc(F)cc3)ccc21	37%[activator]	-8%
Cc1cccc(Nc2ncnc3sccc23)c1C	0%	-6%[1.06 µM]
O=C(O)c1ccc(C2Nc3ccccc3-c3nnc(SCc4ccc(Cl)cc4)nc3O2)cc1 (stereo not given)	51%[activator]	32%[activator]
COc1ccc(C(=O)c2cc3ccccc3o2)cc1OC	90%[activator]	43%[activator]
CCCCCCCCOc1ccc(C(CC(=O)c2ccccc2)CC(=O)c2ccccc2)cc1	-1%	0%
O=[N+]([O-])c1cc(S(=O)(=O)Nc2ccc(Cl)cc2)ccc1N/N=C/c1ccccc1Br	-25%	36%[activator]
CC1(C)C2CCC1(C(=O)Nc1ccc(F)c(F)c1)C(=O)C2 (stereo not given)	10%	20%
CCCCCCNc1nc2c(c(=O)n(C)c(=O)n2C)n1Cc1cc(OC)ccc1Cl	-5%	-7%
C=CCSCC1Nc2cc(Cl)c(S(N)(=O)=O)cc2S(=O)(=O)N1 (stereo not given)	-13%	-9%
Cc1cccc(OCC(=O)N(Cc2ccc(C(C)(C)C)cc2)Cc2ccco2)c1	0%	0%
COc1ccc(C2/C(=C(\O)c3ccccc3)C(=O)C(=O)N2c2ccc(NC(C)=O)cc2)cc1 (stereo not given)	28%	-9%
COc1ccc(-c2nn3c(COc4ccc(C)cc4)nnc3s2)cc1OC	-1%	-2%
CSc1ccccc1NC(=O)c1ccc(C)c(C)c1	198%[activator]	14%
O=C(c1cccc(Cl)c1)n1nc(-c2ccco2)nc1NCc1cccs1	56%[activator]	1%
N#Cc1cnn(-c2ccc(NC(=O)c3ccc4[nH]c5c(c4c3)CCCC5)cc2)c1N	?	48%[activator]
CC(NC(=O)/C=C/c1cnc2ccccc2n1)C12CC3CC(CC(C3)C1)C2 (stereo not given)	?	?
O=C(O)c1cccc2[nH]ncc12	1%	8%
COc1ccc(OCC(=O)N2CCN(CCc3ccccn3)CC2)cc1	-14%	-12%

Structures listed so far that contain a thiophene ring, fused or not:
SMILES	StopGo FLuc	2A Renilla
Cc1cccc(Nc2ncnc3sccc23)c1C	0%	-6%[1.06 µM]
O=C(c1cccc(Cl)c1)n1nc(-c2ccco2)nc1NCc1cccs1	56%[activator]	1%

2 compounds picked at random from the list so far:
SMILES	StopGo FLuc	2A Renilla
Cc1cccc(OCC(=O)N(Cc2ccc(C(C)(C)C)cc2)Cc2ccco2)c1	0%	0%
N#Cc1cnn(-c2ccc(NC(=O)c3ccc4[nH]c5c(c4c3)CCCC5)cc2)c1N	?	48%[activator]

(continued)
SMILES	StopGo FLuc	2A Renilla
CCc1ccc(C(=O)c2cn(CC(=O)Nc3ccc(OC)cc3)c3cc4c(cc3c2=O)OCO4)cc1	-11%	-14%
COc1ccccc1Cn1nnc2c(=O)[nH]c(C3CCN(C(=O)c4ccc(C)cc4)CC3)nc21	-8%	2%
CC1CCC(N(C)C(=O)c2cc3ccccc3oc2=O)CC1 (stereo not given)	88%[activator]	40%[activator]
CNC(=O)NC(=O)COC(=O)c1cn(C)c2ccccc12	3%	0%
O=C(Nc1cc(C(F)(F)F)ccc1C(=O)O)c1ccccc1Cl	1%	6%
CC1=CC(=O)c2ccc3c4c(ccc1c24)CC3	31%[activator]	?
O=C(COc1ccccc1Cl)N(Cc1ccco1)c1ccccn1	202%[activator]	37%[activator]
Cc1nc(-c2ccc(F)cc2)sc1CCNC(=O)c1ccc(OC(C)C)cc1	-5%	5%
Cc1ccc(OCc2nc(-c3ccc(C(=O)N4CCN(c5cccc(C(F)(F)F)c5)CC4)cc3)oc2C)cc1	-14%	-6%
CC1(C)CC(NC2C3CC4CC(C3)CC2C4)CC(C)(C)N1 (stereo not given)	-6%	-2%
COC(=O)c1sc2cccc(F)c2c1S(=O)(=O)NCc1ccc(Cl)cc1	-19%	205%[activator]
COc1ccc(-c2csc3nc(-c4ccc(C)cc4)oc(=O)c23)cc1OC	-1%	-1%
COC(=O)c1ccc2c(=O)[nH]c(CN(C)CC(=O)Nc3cccc(F)c3)nc2c1	1%	35%[activator]
COc1ccc2c(-c3ccccc3)cc(SCC(=O)NCC(F)(F)F)nc2c1	0%	8%
Cc1ccc(-n2c(SCC(=O)Nc3ccc4c(c3)OCCO4)nnc2N2CCOCC2)cc1	43%[activator]	57%[activator]
CCCOc1nc2ccccc2nc1N1CCC(C(=O)Nc2ccccc2F)CC1	2%	-1%
COc1cc(NC(=O)C(C)n2nc(-c3ccccc3)c3c(c2=O)CCCC3)cc(OC)c1 (stereo not given)	5%	5%
CSCCC(NS(=O)(=O)c1ccc2c(c1)oc(=O)n2C)C(=O)NCc1ccccc1 (stereo not given)	-5%	-4%
Cc1ccc(-c2nc3c(cnn3-c3ccccc3)c(=O)n2-c2ccc(Cl)cc2)cc1	-12%	-11%
O=S1(=O)c2ccccc2N(Cc2ccccc2Cl)c2ccccc21	-13%	-7%
COc1cc(/C=C/c2nc(C#N)c(NC(C)c3ccccc3)o2)cc(OC)c1OC (stereo not given)	22%	99%[activator]
Cc1ccc([N+](=O)[O-])c(Oc2ncnc3c2oc2ccccc23)c1	34%	-11%
CCC(=O)Nc1ccc2c(ccn2CCN2CCOCC2)c1	14%	-1%
O=C(Cn1nc(C(=O)O)c2ccccc2c1=O)Nc1cc(Cl)cc(Cl)c1	19%	2%
CCOCCn1ccc2c(OCC(=O)Nc3cc(C)cc(C)c3)cccc2c1=O	-12%	17%
C=CCNc1nc(C(=O)OCc2ccc(F)cc2)cs1	14%	-2%
C/C=C/C=C/C(=O)Nc1ccc(OCCOC)cc1	19%	-1%
O=C(CCCn1c(=O)c2cccn2c2ccc(F)cc21)N1CCN(c2ccccn2)CC1	32%[activator]	28%
COc1ccc(Nc2nc3ccccc3nc2NS(=O)(=O)c2ccc(F)cc2)c(OC)c1	4%	2%
CCCn1nc(C(=O)OCC(=O)Nc2c(C)cccc2C)c2ccccc2c1=O	5%	0%
Cc1cc(O)c(C(c2cccc(F)c2)N2CCC(C)CC2)c(=O)n1Cc1ccco1 (stereo not given)	-20%	-5%
O=C(c1ccc(F)cc1)n1nc(-c2cccnc2)nc1NCc1ccccc1	11%	-4%
CCCOc1ccc(C(=O)Nc2cc3c(cc2N2CCCCC2)n(C)c(=O)n3C)cc1	-17%	-14%
COc1ccc(S(=O)(=O)Nc2nc3ccccc3nc2Nc2ccccc2)cc1	10%	60%[activator]
CCOC(=O)c1cn[nH]c1S(=O)(=O)N(CC(C)C)CC(C)C	3%	9%
Cc1c(Cl)cccc1-c1ccc(CNc2ccc3[nH]c(=O)[nH]c3c2)o1	0%	-10%
Cc1oc(-c2ccccc2)nc1C(=O)OC(C)C(=O)NCc1ccccc1 (stereo not given)	-7%	-8%
O=C(Nc1ccc2nc(SCC(=O)N3CCCc4ccccc43)sc2c1)c1ccc(F)cc1	?	?
CC(=O)N1CCC(C(=O)Nc2ccc(Br)cc2)CC1	9%	-13%
CS(=O)(=O)c1ccc(C(=O)Nc2c(Cl)cc(NC(=O)c3cnccn3)cc2Cl)cc1	20%	2%

Reformatted as labelled records: three of the compounds above.
O=C(Nc1ccc2nc(SCC(=O)N3CCCc4ccccc43)sc2c1)c1ccc(F)cc1
- StopGo FLuc: ?
- 2A Renilla: ?

CCCn1nc(C(=O)OCC(=O)Nc2c(C)cccc2C)c2ccccc2c1=O
- StopGo FLuc: 5%
- 2A Renilla: 0%

COc1ccc(S(=O)(=O)Nc2nc3ccccc3nc2Nc2ccccc2)cc1
- StopGo FLuc: 10%
- 2A Renilla: 60%[activator]

The results go on:
SMILES	StopGo FLuc	2A Renilla
O=C(C1CC=CCC1)N1CCCC(C(F)(F)F)C1 (stereo not given)	0%	9%
COc1ccc(CN2C(=O)N(c3ccc(C)cc3)C(=O)C2CC(=O)Nc2ccccc2)cc1OC (stereo not given)	0%	13%
CCOC(=O)c1cnc2c(C)cc(Cl)cc2c1N1CCN(C)CC1	1%	-3%
Cc1ccc2onc(CNC(=O)N3CCN(c4cc(Cl)ccc4C)CC3)c2c1	-8%	70%[activator]
Cc1cc(OC(C)C(=O)Nc2ccc3nsnc3c2)cc(C)c1Cl (stereo not given)	6%	8%
c1ccc(-c2nc(-c3ccccc3)c(-c3ccccc3)nc2-c2ccccc2)cc1	15%	8%
COc1ccc(/C=C(/C#N)C(=O)c2c[nH]c3cc(F)ccc23)cc1	-5%	11%
CCCCC(=O)NC1(C(F)(F)F)C(=O)Nc2c1c(=O)[nH]c(=O)n2-c1ccc(F)cc1 (stereo not given)	1%	1%
CCCS(=O)(=O)c1nc(S(=O)(=O)c2ccc(C)cc2)c(NCC)s1	-11%	51%[activator]
CCOC(=O)c1c(S(=O)(=O)N2CCC(C(=O)NCc3ccccc3OC)CC2)c(C)n(C)c1C	-15%	53%[activator]
Cc1ccccc1CN(C)CC(O)COc1ccc(-c2ccccc2)cc1 (stereo not given)	18%	-3%
C=CCn1c(SCC)nc2c1c(=O)[nH]c(=O)n2C	-6%	-5%
C=CCNC(N)=S	-17%[11.5 µM]	-2%
Oc1c(Cl)cc(Cl)c2cccnc12	-12%[11.5 µM]	-6%
CN(Cc1ccco1)C(=O)COc1ccc(N(C)S(=O)(=O)c2cccs2)cc1	12%	60%[activator]
Cc1ccc(-c2ccc(C=O)o2)c(Br)c1	0%	?
COc1cccc(NC(=O)c2oc3ccccc3c2NC(=O)c2ccc(F)c(F)c2)c1	-7%	-7%
Cc1ccc(NC2(c3nnnn3-c3ccccc3C)CCCC2)cc1	3%	130%[activator]
CC(Oc1ccc(Br)cc1Cl)C(=O)NC1(C#N)CCCCC1 (stereo not given)	7%	10%
COc1ccc(CNc2cccc(C(=O)O)c2C)c(OC)c1	-88%	1%
O=C(Cn1ncc2c(Cl)cccc21)NCc1cccc(Br)c1	0%	-7%
CC(C)n1c(SCCCn2c(=O)c3c(ncn3C)n(C)c2=O)nc2ccccc21	12%	37%[activator]
COc1ccccc1CNC(=O)CCS(=O)(=O)c1ccc2c(c1)CCN2C(C)=O	6%	-8%
CCCCN1C(=O)N2Cc3ccccc3C2CS1(=O)=O (stereo not given)	212%[activator]	87%[activator]
CC1CCCN(S(=O)(=O)c2ccc3c(c2)c(=O)nc2ccccn23)C1 (stereo not given)	-24%	-5%
Cc1cccc(C)c1OC(=O)CSc1nnc(-c2ccc3c(c2)OCO3)o1	0%	-9%
CCCCc1nn2c(=O)cc(COC(=O)c3ccc(NC(=O)C4CCCCC4)cc3)nc2s1	13%	1%
O=C(CSc1nc2c(c(=O)[nH]1)CN(Cc1ccc(F)cc1)CC2)Nc1cccc(C(F)(F)F)c1	-6%	-1%
O=C(Cn1c(=O)n(CC2CCCO2)c(=O)c2ccccc21)Nc1cccc(Cl)c1 (stereo not given)	-4%	20%
Cc1ccc(CC(=O)NCc2ccccn2)cc1	0%	-9%[1.06 µM]
CSc1ccccc1C(=O)Nc1c(F)cc(F)cc1Br	6%	5%
Cc1ccc(NC(=O)Cn2c(=O)n(Cc3ccc4c(c3)OCO4)c(=O)c3oc4ccccc4c32)cc1C	4%	-7%
Cc1ccc(C)c(-c2nn(CC(O)COCc3ccccc3)c(=O)c3ccccc23)c1 (stereo not given)	-5%	17%
COc1cccc2cc(S(=O)(=O)c3ccccc3F)c(=O)oc12	-7%	-10%
CC12CC3(C)CC(C)(C1)CC(N)(C2)C3	0%	31%
CCCn1c(N)c(N2CCOCC2)c(=O)n(CC(=O)NCc2ccc(F)cc2)c1=O	-5%	-14%
O=C(Nc1oc2ccc(Cl)cc2c(=O)c1-c1ccccc1)c1ccco1	14%	-12%
Cc1ccc2c(=O)c(-c3nc(-c4ccccc4C)no3)cn(CC(=O)NCc3cccs3)c2n1	52%[activator]	11%
CCCCSc1nc2c(c(=O)[nH]c(=O)n2C)n1CCCC	5%	7%
Cc1ccc(C(=O)Nc2ccc3oc(-c4cc(Br)ccc4Cl)nc3c2)cc1	121%[activator]	93%[activator]

4 of the compounds above, as labelled records.
> CC(C)n1c(SCCCn2c(=O)c3c(ncn3C)n(C)c2=O)nc2ccccc21
  StopGo FLuc = 12% | 2A Renilla = 37%[activator]

> COc1cccc2cc(S(=O)(=O)c3ccccc3F)c(=O)oc12
  StopGo FLuc = -7% | 2A Renilla = -10%

> O=C(Cn1c(=O)n(CC2CCCO2)c(=O)c2ccccc21)Nc1cccc(Cl)c1 (stereo not given)
  StopGo FLuc = -4% | 2A Renilla = 20%

> Cc1ccc(CC(=O)NCc2ccccn2)cc1
  StopGo FLuc = 0% | 2A Renilla = -9%[1.06 µM]

(continued)
SMILES	StopGo FLuc	2A Renilla
O=C(CCc1c[nH]c2ccccc12)OCC(=O)c1ccc2ccccc2c1	32%[activator]	29%
COc1cccc(CNCCSc2nnnn2C)c1OCc1ccc(Cl)cc1Cl	?	-24%
O=C(NC1CCCC1)c1ccc2noc(-c3ccc(Cl)cc3)c2c1	0%	10%
CCc1cc(=O)oc2cc(OC(=O)CN3C(=O)NC4(CCCC4)C3=O)ccc12	7%	-3%
CCCn1c(CNC(=O)c2ccc(F)cc2)nc2ccccc21	7%	10%
CC(=O)c1ccc(N2CCN(Cc3nnc(-c4ccc(Br)s4)o3)CC2)c(F)c1	0%	1%
CCC1CCc2sc(C(=O)NC3CCCC3)cc2C1 (stereo not given)	22%	0%
COC(=O)C1CCN(S(=O)(=O)c2cc3c4c(c2)CC(=O)N4CCC3)CC1	-3%	-1%
Cc1ccc(OCC(O)Cn2nnc(-c3cccnc3)n2)c(C)c1 (stereo not given)	18%	4%
